Mtb bLac sens: beta-lactam sensitization of Mtb H37Rv; actives 0.27% (n = 330,000); inhibition, % at 25 µM; M. tuberculosis H37Rv growth with meropenem, percent inhibition; hits of this screen are not shown here;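 active = about 74% or more and at least 40 points above the plate without the antibiotic, then above 30% in a dose series; inconclusive = first-round hits that could not be retested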;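 note: growth measured after seven days incubation then overnight dye step; 0% = bacteria only wells and 100% = bacteria with antibiotic; twin plates without the antibiotic show which effects depend on it; some results filed as inactive read as strong as hits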
YopH inh: YopH (Yersinia) phosphatase inhibition. fluorescence Ex485/Em525. inhibition, %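 (about 10 µM by stock and volumes)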. actives 0.16% (n = 140,000);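 active = inhibition of 50% or more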;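 note: controls were vehicle for no effect and minimum signal wells for full effect; inactives centre near -20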
RecA intein inh: inhibitors of M. tuberculosis RecA intein splicing; P9WHJ3; cell-free RecA intein splicing, fluorescence; inhibition, %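 (about 9 µM by stock and volumes)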; actives 0.75% (n = 290,000); AID 2221; in the data active = inhibition above about 30%; inconclusive = no clear call, values can overlap the other calls;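 note: 0% = vehicle wells and 100% = reference inhibitor control wells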
Target sequence (P9WHJ3 whole entry, looked up): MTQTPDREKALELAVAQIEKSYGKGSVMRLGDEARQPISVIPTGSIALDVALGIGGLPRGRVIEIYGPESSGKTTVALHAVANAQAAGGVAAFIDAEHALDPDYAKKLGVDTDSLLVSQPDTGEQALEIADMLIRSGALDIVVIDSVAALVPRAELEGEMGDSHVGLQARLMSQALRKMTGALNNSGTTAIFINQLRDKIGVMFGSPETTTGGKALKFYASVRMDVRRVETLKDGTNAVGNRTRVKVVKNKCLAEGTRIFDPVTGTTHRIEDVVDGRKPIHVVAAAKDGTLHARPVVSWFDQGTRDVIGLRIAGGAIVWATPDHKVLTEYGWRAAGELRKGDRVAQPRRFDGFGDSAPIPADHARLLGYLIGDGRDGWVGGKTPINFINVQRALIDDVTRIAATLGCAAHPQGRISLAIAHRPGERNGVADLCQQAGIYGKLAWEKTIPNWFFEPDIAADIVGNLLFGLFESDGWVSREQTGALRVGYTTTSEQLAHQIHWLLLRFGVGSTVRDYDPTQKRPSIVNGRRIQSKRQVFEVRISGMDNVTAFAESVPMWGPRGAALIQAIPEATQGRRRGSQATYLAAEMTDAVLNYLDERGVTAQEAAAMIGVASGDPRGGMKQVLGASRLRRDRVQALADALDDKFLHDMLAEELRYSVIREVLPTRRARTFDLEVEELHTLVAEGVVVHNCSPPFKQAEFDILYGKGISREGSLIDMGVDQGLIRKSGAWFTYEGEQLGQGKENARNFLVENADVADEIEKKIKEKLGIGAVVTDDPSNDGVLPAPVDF
Arbovirus inh: blocks arbovirus infection. arbovirus infection cell-based antiviral screen. inhibition, % at 10 µM. actives 0.37% (n = 200,000);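 active = inhibition from about 30%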;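 note: bluetongue infection of BSR cells; cell survival read as ATP light after 72 h; 0% = infected wells without compound and 100% = uninfected wells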
Mtb H37Rv: M. tuberculosis H37Rv growth inhibitors, H37Rv strain (AID 1626); M. tuberculosis H37Rv growth inhibition; higher % means a stronger effect; one-dose inhibition, % at 10 µM; IC50 in µM for titrated hits; actives 0.95% (n = 220,000);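 active = confirmed in a dose series; inconclusive = inhibition above 80% but not taken into the dose series; inactive = below 80% or under 30% at every dose of the series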;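 note: bacteria incubated seven days before Alamar blue readout; 0% = bacteria only wells and 100% = bacteria with antibiotic wells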
Arbovirus inh repeat: also measured in Arbovirus inh; calls as there; inhibition, %; measured here: 10K subset replicate screen; many hits read low in the repeat;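 first of two repeat runs on a subset; 0% = infected and 100% = uninfected wells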
An asterisk follows results filed as active; u = inconclusive; x = no result given. A portion of the library; the hit share may differ from the screen's.

SMILES | Mtb bLac sens | YopH inh | RecA intein inh | Arbovirus inh | Mtb H37Rv | others
COc1ccc(S(=O)(=O)N2CCC(C(=O)NC3CC3)CC2)cc1 | 7 | x | -1.6 | x | x
O=C(NCC1CCCO1)C(c1ccncc1)N(Cc1cccs1)C(=O)CN1C(=O)c2ccccc2S1(=O)=O (centres undefined) | -4 | x | -0.7 | 4 | 0%
C/C(=N\NC(=O)CCn1nnc2ccccc21)c1ccco1 | -6 | x | 1.6 | x | -4%
CCNC(=O)COC(=O)c1ccc(S(=O)(=O)N2CCCCCC2)cc1 | 5 | 8 | 1.0 | 8 | -3%
Cn1c(SCC(=O)NCc2ccc3c(c2)OCO3)nc2c(c1=O)SCC2 | 4 | x | -2.3 | x | x
O=C(Cc1ccc(Cl)cc1)Nc1ccccc1Sc1ccccc1 | 7 | -17 | 5.6 | -6 | 9%
CCOc1ccc(OC(=O)c2ccc3c(=O)n4c(nc3c2)CCC4)cc1 | 91 | x | -3.9 | x | x
COCc1c(C(N)=O)nnn1-c1nonc1N | 5 | -4 | 1.1 | -3 | -3%
O=C(Nc1ncnc2sc3c(c12)CCCCC3)c1ccc(F)cc1 | 95 | -25 | -0.9 | -13 | u
CCn1c(SCC(=O)Nc2ccccc2-c2ccccc2)nnc1-c1ccoc1C | -2 | -11 | 4.6 | -3 | 1%
Cc1ccc(Oc2nsnc2N2CCOCC2)cc1 | 2 | -36 | -5.0 | -1 | 3%
CC(C)NC(=O)CCn1c(=S)oc2ccccc21 | -5 | x | -7.8 | 27 | 2%
CN(C)S(=O)(=O)N1CCN(C(=O)N(c2ccccc2)c2ccccc2)CC1 | 0 | 37 | -0.4 | -2 | -1%
COc1ccc2c(c1)CCc1c(C(=O)N3CCCC3)noc1-2 | 2 | -37 | -0.5 | -6 | 13%
COC(=O)c1cccc(NC(=O)Cn2nnc3ccccc32)c1 | -9 | -36 | 4.6 | -9 | 1%
C=CCNc1nc(C(=O)OCC(=O)Nc2ccc(S(N)(=O)=O)cc2)cs1 | -10 | x | -1.8 | x | x
CCOC(=O)c1csc(-c2snnc2C)n1 | 97 | x | x | x | 52%
Cc1ccc(NC(=O)n2ccc(-c3ccc(-n4ccnc4)cc3)n2)cc1 | x | x | x | -10 | -2%
CSc1nnc2c(n1)OC=Nc1ccc(Br)cc1-2 | -4 | x | 13 | x | x
CCc1nnc(NC(=O)C(C)Sc2ccccc2)s1 (centres undefined) | 2 | -43 | -2.6 | 5 | 4% | Arbovirus inh repeat=-3

The final 4 entries of the part before come first, to join the parts.
SMILES | Mtb bLac sens | YopH inh | RecA intein inh | Arbovirus inh | Mtb H37Rv | others
CCOC(=O)c1csc(-c2snnc2C)n1 | 97 | x | x | x | 52%
Cc1ccc(NC(=O)n2ccc(-c3ccc(-n4ccnc4)cc3)n2)cc1 | x | x | x | -10 | -2%
CSc1nnc2c(n1)OC=Nc1ccc(Br)cc1-2 | -4 | x | 13 | x | x
CCc1nnc(NC(=O)C(C)Sc2ccccc2)s1 (centres undefined) | 2 | -43 | -2.6 | 5 | 4% | Arbovirus inh repeat=-3
O=C(O)CCCC(=O)Nc1nc(-c2ccc(F)cc2)cs1 | 7 | -27 | -0.9 | 12 | -1%
OCCC1CN(Cc2ccc(Oc3ncccn3)cc2)CCN1C1CCCC1 (centres undefined) | -12 | x | -1.1 | 1 | 2%
Clc1ccc2c(c1)C(OC1CN3CCC1CC3)c1ccccc1CS2 (centres undefined) | 11 | -18 | -1.5 | -34 | 10%
O=C1CN(c2nc(-c3ccccc3)c3cc(Cl)ccc3n2)c2ccccc2N1 | 42 | -8 | 0.2 | -3 | 0%
Cc1cc(=O)n(C)c(=O)n1CCCCCCOc1cccc([N+](=O)[O-])c1 | 11 | -28 | 4.1 | 4 | 13%
Cn1c(=O)oc2cc(S(=O)(=O)NCc3ccccc3)ccc21 | -1 | -14 | -0.1 | 10 | -1%
Cc1ccc(CCNC(=O)C2CCN(S(=O)(=O)N3CCOCC3)CC2)cc1 | 1 | x | 1.1 | x | x
CC1=C(C(=O)Nc2ccc(Cl)cc2)C2(CCCCC2)C(C(N)=O)C(=S)N1 (centres undefined) | 1 | -25 | 1.4 | 0 | 8%
OC1=C(O)c2nc3ccccc3nc21 | 0 | -36 | -0.5 | 4 | 4%
C=CCn1c(SCc2cc(=O)n3ccsc3n2)nnc1C1CCCCC1 | -2 | -20 | 1.1 | 14 | -4%
Cc1ccc(C(=O)Nc2ccc(C(=O)N/N=C/c3ccc(C)o3)cc2)cc1 | 2 | x | -0.2 | x | x
Cc1nn2c(C(F)(F)F)c3c(nc2c1-c1ccccc1)CCC3 | 1 | x | x | -4 | 3%
O=C(NNS(=O)(=O)c1ccccc1[N+](=O)[O-])c1cccc(Cl)c1 | -1 | -49 | 2.5 | 1 | -2%
CC(=O)c1c(N2CCN(Cc3ccccc3)CC2)nc(=S)n(-c2ccccc2)c1C | -3 | x | -33 | 13 | 9%
COc1ccc(/C=C(\C#N)C(=O)OCC(=O)NC2CC2)cc1 | -2 | x | -1.6 | 2 | 6%
c1ccc(Cn2c(CN3CCCC3)nc3ccccc32)cc1 | 53 | -26 | 1.1 | -3 | 3%
Cc1cc(-n2c(SCCC#N)nnc2-c2cccnc2)ccc1Cl | 1 | -10 | 1.3 | 2 | -11% | Arbovirus inh repeat=3
CSc1ncc2c(n1)-c1cc(C)ccc1SC2 | 89 | -27 | 1.2 | -8 | 16%
COc1ccc(OCC(=O)N2CCN(Cc3ccc(SC)cc3)CC2)cc1 | 10 | x | 4.9 | 7 | -10%
Cc1ccc(S(=O)(=O)C(C#N)c2nc3ccccc3nc2N2CCC(C)CC2)cc1 (centres undefined) | x | -33 | -7.5 | 2 | 5%

In the list so far, these contain a nitro group on carbon:
SMILES | Mtb bLac sens | YopH inh | RecA intein inh | Arbovirus inh | Mtb H37Rv | others
Cc1cc(=O)n(C)c(=O)n1CCCCCCOc1cccc([N+](=O)[O-])c1 | 11 | -28 | 4.1 | 4 | 13%
O=C(NNS(=O)(=O)c1ccccc1[N+](=O)[O-])c1cccc(Cl)c1 | -1 | -49 | 2.5 | 1 | -2%

(listing goes on)
SMILES | Mtb bLac sens | YopH inh | RecA intein inh | Arbovirus inh | Mtb H37Rv | others
CCc1nc2ccc(N3CCN(C)CC3)cc2nc1CC | 1 | x | -179 | -4 | -9%
CC1CCc2c(sc(/N=C/c3cccnc3)c2C(N)=O)C1 (centres undefined) | -6 | x | -3.9 | x | 1%
O=C(CN(C(=O)c1cccc([N+](=O)[O-])c1)C1CCCCC1)Nc1ccc(Cl)c([N+](=O)[O-])c1 | 14 | -15 | -2.3 | 12 | 13%
CN(C)S(=O)(=O)c1cccn1-c1ncc(C(F)(F)F)cc1Cl | 2 | -1 | 0.1 | 0 | -7%
CCN(CC)C(=O)Cn1c(=O)n(CCCC(=O)NCc2ccccc2)c(=O)c2sccc21 | 0 | x | -0.8 | -7 | -5%
COc1ccc(C2CC(=O)C3=C(C2)Nc2ccccc2N(C(=O)C2CC2)C3c2cccnc2)cc1OC (centres undefined) | -3 | -2 | 4.5 | 3 | -3%
CCCCC(=O)O[C@H]1CC[C@H]2[C@@H]3CCc4cc(O)ccc4[C@H]3CC[C@]12C | 69 | -29 | 4.9 | -44 | 26%
CCOC(=O)c1ccc(NC(=O)CCn2c(=O)oc3ccccc32)cc1 | -4 | x | -0.5 | x | x
COc1ccc(NC(=O)CSc2ncnc3c2sc2ccccc23)c(OC)c1 | 9 | -20 | -2.2 | -25 | -1%
O=C(CCC(=O)N(CC(=O)NC1CCCC1)c1cccc(F)c1)Nc1nccs1 | -1 | x | -4.7 | x | x
O=S(=O)(c1ccc(N2CCN(CCO)CC2)nc1)N1CCOCC1 | -9 | x | -0.7 | x | x
COc1cc(/C=N\NC(=O)c2ccc(Cn3nc([N+](=O)[O-])c(Cl)c3C)o2)ccc1O | -1 | -2 | -0.9 | -8 | -7%
COc1ccc(NC(=O)C(c2cc3c(cc2[N+](=O)[O-])OCO3)N2CCN(C=O)CC2)cc1 (centres undefined) | -4 | -17 | -2.4 | 3 | 1%
Cc1noc(C)c1COC(=O)c1ccc(F)c(S(=O)(=O)N2CCCCC2)c1 | -2 | x | x | 1 | 10%
CCC(C)c1ccccc1NC(=O)C(C)OC(=O)CN1C(=O)NC(C)(C)C1=O (centres undefined) | -5 | x | -3.2 | x | x
CC(C)(C)NC(=O)CCc1nnc(Cc2c[nH]c3ccccc23)o1 | -9 | x | -0.4 | -2 | 1%
CC1=C(C(=O)N2CCCC(CCC(=O)NCc3ccccc3F)C2)OCCO1 (centres undefined) | 3 | x | -0.7 | 1 | 3%
C[C@]12CC[C@@H]3c4ccc(O)cc4CC[C@H]3[C@@H]1CC[C@@H]2OC(=O)CCC(=O)O | 3 | -31 | 3.8 | -4 | -5%
C=CCn1c(SCC(=O)OC)nc2sc3c(c2c1=O)CCN(C)C3 | 10 | -23 | -0.2 | 5 | -6%
CC1COc2ccccc2N1S(=O)(=O)c1ccccc1 (centres undefined) | 5 | x | x | -5 | 7%

A section taken from the entries so far, as a working copy:
SMILES | Mtb bLac sens | YopH inh | RecA intein inh | Arbovirus inh | Mtb H37Rv | others
O=S(=O)(c1ccc(N2CCN(CCO)CC2)nc1)N1CCOCC1 | -9 | x | -0.7 | x | x
COc1cc(/C=N\NC(=O)c2ccc(Cn3nc([N+](=O)[O-])c(Cl)c3C)o2)ccc1O | -1 | -2 | -0.9 | -8 | -7%
COc1ccc(NC(=O)C(c2cc3c(cc2[N+](=O)[O-])OCO3)N2CCN(C=O)CC2)cc1 (centres undefined) | -4 | -17 | -2.4 | 3 | 1%
Cc1noc(C)c1COC(=O)c1ccc(F)c(S(=O)(=O)N2CCCCC2)c1 | -2 | x | x | 1 | 10%
CCC(C)c1ccccc1NC(=O)C(C)OC(=O)CN1C(=O)NC(C)(C)C1=O (centres undefined) | -5 | x | -3.2 | x | x
CC(C)(C)NC(=O)CCc1nnc(Cc2c[nH]c3ccccc23)o1 | -9 | x | -0.4 | -2 | 1%

Additional compounds.
SMILES | Mtb bLac sens | YopH inh | RecA intein inh | Arbovirus inh | Mtb H37Rv | others
CC(C)(C)Nc1ncnc2c1cnn2-c1ccccc1 | 0 | x | 0.1 | 12 | 11% | Arbovirus inh repeat=26
CCOc1ccc(-n2c(Cc3cc(=O)[nH]c(=O)[nH]3)nnc2SCC(=O)OC)cc1 | -3 | -26 | -0.5 | 4 | -1% | Arbovirus inh repeat=1
CCNc1nc(NCC)nc(N(C#N)CCOc2ccccc2)n1 | -3 | x | 3.8 | 5 | 5%
O=C1CCCN1CC1CCCN(Cc2nc(COc3ccccc3)no2)C1 (centres undefined) | -10 | x | 8.1 | 9 | -4%
O=C(Nc1ccc2c(c1)Cc1ccccc1-2)c1cccnc1 | 21 | x | 0.3 | 2 | 2%
CN(C(=O)CSc1nnc(-c2ccncc2)n1-c1ccccc1)C1CCS(=O)(=O)C1 (centres undefined) | 5 | x | -0.5 | x | -3%
O=C(OCCN1CCN(C2=NS(=O)(=O)c3ccccc32)CC1)c1ccccc1F | 8 | x | -0.1 | x | x
S=c1[nH]ccn1-c1cccc(Cl)c1Cl | 0 | x | -0.4 | x | -2%
CC(C(=O)N1CCN(c2ccccc2F)CC1)c1ccc([N+](=O)[O-])cc1 (centres undefined) | -5 | x | 1.4 | x | x
CC(C)Cc1cc(C(=O)Nc2c(F)cc(F)cc2Br)no1 | 99 | -13 | -1.0 | 3 | 6.6µM*
COc1cc(-c2nn3c(-c4ccccc4)nnc3s2)cc(OC)c1OC | -4 | -27 | -4.3 | -12 | -7%
Cc1ccc(NS(=O)(=O)c2cc(C(=O)O)ccc2Cl)c(C)c1 | 7 | -20 | -9.0 | -5 | 0%
CC(C)OC(=O)CSc1nnc(-c2cccnc2)n1N | -3 | -13 | 4.3 | 4 | 0%

Source: PubChem (several laboratories)
